# Compound activity (PubChem)
# VDR inhibitor: inhibitors of human vitamin D receptor. P11473. Potency, µM, without a hit: max response, negative = inhibition, most hits filed as inhibitors. VDR-SRC2-3 peptide fluorescence polarization, 2 h. 400,000 tested, 0.93% active; active means well fitted inhibition curve with a large enough effect; inconclusive means small, poorly fitted or top-dose-only effect, or another doubt; inactive means no such curve, though single readings can be large or run the other way; further: series mostly up to about 120 µM
# Target sequence (P11473 whole entry, looked up): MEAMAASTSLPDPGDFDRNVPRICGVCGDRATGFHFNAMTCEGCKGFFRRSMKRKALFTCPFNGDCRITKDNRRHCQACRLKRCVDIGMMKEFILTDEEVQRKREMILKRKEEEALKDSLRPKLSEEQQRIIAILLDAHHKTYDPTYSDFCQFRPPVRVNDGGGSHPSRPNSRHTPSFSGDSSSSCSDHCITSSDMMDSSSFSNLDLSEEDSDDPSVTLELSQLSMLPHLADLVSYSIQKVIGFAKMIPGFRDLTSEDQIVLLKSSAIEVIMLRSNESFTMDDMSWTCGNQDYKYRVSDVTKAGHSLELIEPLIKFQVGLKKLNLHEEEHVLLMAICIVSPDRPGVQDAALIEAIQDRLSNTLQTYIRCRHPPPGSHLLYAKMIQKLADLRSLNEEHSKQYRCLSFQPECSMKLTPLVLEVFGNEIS
#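 Inhibition of the VDR/SRC2-3 peptide interaction is quantified by fluorescence polarization. Compounds (23 nl, pintool) incubate with the reagents for 2 hours at ambient room temperature.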
# An asterisk follows results filed as active; ? = inconclusive; & = joins results of further samples. On the % scale 0 is the no-effect control and ±100 the full control effect; potency means the concentration at half of the fitted maximal effect. The list is partial (hit frequency here may not be typical).
SMILES,VDR inhibitor
CC(C)[C@H](NC(=O)c1ccc(Cl)c([N+](=O)[O-])c1)C(=O)O,-12%
CCOC(=O)[C@@]12C[C@@H]1/C(=N/O)c1ccccc1O2,-3%
Cc1ccc2nc3c(c(C(=O)OCC(=O)NC4CCS(=O)(=O)C4)c2c1)CCCC3 (stereo not drawn),6%
COc1ccc(-c2c(-c3cc(OC)cc(OC)c3)n(C)c3ccc(-c4ccc(S(N)(=O)=O)cc4)cc23)cc1,-12%
O=C(Nc1ccccc1C(=O)NC(Cc1ccccc1)C(=O)NC1CCCCCC1)c1ccccc1 (stereo not drawn),-9%
COc1cc2c(cc1OC)CN(C(=O)Cc1c(F)cccc1Cl)CC2,5%
Cc1ccc(S(=O)(=O)NC2=C(N3CCN(c4ccccc4F)CC3)C(=O)c3ccccc3C2=O)cc1,-18%&2%
Cc1ccc(NC(=O)c2cncc(Br)c2)c([N+](=O)[O-])c1,13%
CCOC(=O)N1CCN(C(=O)c2ccc(S(=O)(=O)NCc3ccco3)cc2)CC1,-8%
COc1cc(NS(=O)(=O)c2ccc(NC(=S)NC(C)=O)cc2)nc(OC)n1,-4%
Cc1oc2ccc(O)c(CN3CCOCC3)c2c1C(C)O (stereo not drawn),-19%
CN(C)/C=N/c1c(C#N)cnn1-c1ccc(F)c(Cl)c1,15%
COCCCNC(=O)c1ccc(NS(C)(=O)=O)cc1,-3%
COc1ccc(OC)c(NC(=O)Cn2nc(C)c3ccccc3c2=O)c1,-3%
CCc1noc(C)c1C(=O)N(CC(C)C)c1c(N)n(Cc2ccccc2)c(=O)[nH]c1=O,-5%
Cc1cnc(C(=O)Nc2ccccc2C(=O)N2CCOCC2)cn1,1%
O=C(CSc1ncn[nH]1)CSc1ncn[nH]1,-15%
Cc1cc(-c2onc(C)c2C(=O)Nc2ccc(C(F)(F)F)cc2)no1,5%
CCOC(=O)c1ccc(N2C(=O)c3n[nH]c(C)c3C2c2cccc(Br)c2)cc1 (stereo not drawn),-13%
O=S(=O)(c1ccc(N2CCOCC2)nc1)N(Cc1ccccn1)Cc1ccccn1,18%
COc1cc(C(=O)NCc2nnc(SCC(=O)Nc3cc(C)on3)o2)cc(OC)c1OC,-7%
Cc1cc(Cl)ccc1OCC(=O)NCCOc1nc(N2CCCCC2)nc(N2CCOCC2)n1,-1%
COc1ccc(NS(=O)(=O)c2ccc(N3CCCCC3)c(N)c2)cc1,-10%
O=C(NCC1CCCO1)c1ccc(NC(=O)C2CC=CCC2C(=O)O)cc1 (stereo not drawn),-9%
O=C(O)CCCC(=O)Nc1ccccc1SCCS(=O)(=O)c1ccc(Cl)cc1,-17%
CCN/C=C(\C#N)S(=O)(=O)c1ccc(Br)cc1,-9%
COC(=O)C1=C(CSc2nc3ccccc3s2)NC(=O)NC1c1ccc(F)cc1 (stereo not drawn),-29%
Cc1ccc(N2CC(c3nnc(NC(=O)c4ccco4)s3)CC2=O)cc1Cl (stereo not drawn),1%
CCN(CC)C(=O)C(=O)Nc1ccc(F)c(Cl)c1,8%
CC(Oc1ccccc1F)C(=O)NNC(=O)c1cc2ccccc2o1 (stereo not drawn),7%
COc1cc2c(cc1OC)C(c1cc(Br)ccc1F)N(C(=O)CCl)CC2 (stereo not drawn),?
Cc1nnc(SCC(=O)NCc2ccc(F)cc2)[nH]c1=O,15%
Cc1ccc(C(=O)N[C@H](C(=O)OCC(=O)Nc2cccc(S(N)(=O)=O)c2)C(C)C)cc1,-4%
Cc1ccc(SCc2cn3c(C)csc3n2)cc1,-11%
O=c1[nH]c(C2CCCN(S(=O)(=O)c3ccccc3)C2)nc2c1nnn2Cc1ccc(OC(F)(F)F)cc1 (stereo not drawn),17%&10%
O=C(Cc1ccc(Br)cc1)NC1CCSC1=O (stereo not drawn),-6%
Cc1ccc(NS(=O)(=O)c2ccc(C(=O)NCC(c3ccco3)N(C)C)cc2)cc1 (stereo not drawn),-4%
NC(=O)c1ccc(-c2ncc(-c3ccccc3)o2)cc1,3%
COc1cc(NC(=O)CC(C)S(=O)(=O)c2cc3c(cc2C)NC(=O)CO3)cc(OC)c1OC (stereo not drawn),-6%
O=C(Cn1cnc2c(oc3nc4c(cc32)CCCC4)c1=O)Nc1ccccc1,-4%
CC(C)(C)c1[nH]nc2c1C(c1ccoc1)C(C#N)=C(N)O2 (stereo not drawn),-4%
FC(F)(F)c1cc(Oc2ccc(Cl)cc2)nc(-c2ccccn2)n1,-7%
CC(=O)n1cc(N(C(=O)CCl)c2ccccc2)c2ccccc21,?
COc1ccc(-c2nn(C)c(=O)c3ccccc23)cc1CNC(=O)c1ccco1,1%
Cc1ccc2c(CNCC(C)c3ccccc3)c(C(=O)O)n(Cc3ccccc3C)c2c1 (stereo not drawn),-3%
O=S1(=O)NC(c2ccccc2)CC(CC2CCCCC2)O1 (stereo not drawn),-23%
CCOC(=O)C(=CNc1cccnc1Oc1ccc(C)c2c1CCC2)C(=O)OCC,15%
COC(=O)c1nn(-c2nc(-c3ccc(OC)c(OC)c3)cc(C(F)(F)F)n2)cc1[N+](=O)[O-],12%
Oc1ccc(Br)cc1-c1cc(-c2ccco2)[nH]n1,13%
Nc1nc(-c2ccco2)cs1,2%
O=C(NC(=S)Nc1ccc(Cl)cc1)c1ccccc1,1%
CCCCn1c(N)c(N(CCOC)C(=O)c2cc(-c3ccccc3Cl)nc3ccccc23)c(=O)[nH]c1=O,-13%
COC(=O)NC1(C(F)(F)F)C(=O)NC(C)=C1C(=O)OC (stereo not drawn),1%
COc1ccc(C2C(C#N)=C(C)NC3=C2C(=O)CC(C)(C)C3)cc1 (stereo not drawn),19%
O=C(O)[C@H]1CCC(=O)N1Cc1ccco1,-29%
O=C(CSc1ccccc1)Nc1ccc2c(c1)OCCO2,-15%
O=C(O)c1ccc2c(c1)CCCN2,13%
CCOC(=O)CC(NC(=O)Cc1ccc(F)cc1)c1ccccc1Cl (stereo not drawn),0%
COc1ccc2cc(C3CC(c4ccco4)=NN3S(C)(=O)=O)c(Cl)nc2c1 (stereo not drawn),-17%
CCOC(=O)C(C)NC(=O)CCc1nnc2ccc(N3CCCCC3)nn12 (stereo not drawn),-1%
# Additional results follow:
SMILES,VDR inhibitor
COCCCNc1nc2c(c(=O)n(Cc3cccc(Br)c3)c(=O)n2C)n1C,-6%
COc1ccc(C(=O)NC(C)CCn2cccn2)cc1OC1CCN(C(C)C)CC1 (stereo not drawn),-1%
CC(=O)c1cccc(NC(=O)N2CCCC2C(=O)Nc2ccc3c(c2)OCO3)c1 (stereo not drawn),-5%
O=C(COC(=O)c1ccccc1F)NCc1ccc2c(c1)OCO2,-13%
COc1ccc(NC(=O)CCC(=O)OC(C(=O)c2ccccc2)c2ccccc2)cc1 (stereo not drawn),4%
CN1C(=O)N(C)C2(c3ccccc3)NNC(N)=NC12c1ccccc1 (stereo not drawn),10%
Cc1cc2cc(CCNC(=O)c3ccc(S(=O)(=O)N4CCCC4)cc3)c(=O)[nH]c2cc1C,4%
Cc1ccc(CNC(=O)C2CC3Cn4c(nc5cc(Cl)c(Cl)cc54)C3N2C)o1 (stereo not drawn),-7%
CSc1ncc(Sc2ccccc2)c(C(=O)O)n1,-7%
Cc1c(N2C(=O)c3ccc(Br)cc3C2=O)c(=O)n(-c2ccccc2)n1C,?
O=C(c1ccc(Cl)cc1)c1ccc(Oc2cc(NN3CCCCC3)c([N+](=O)[O-])cc2[N+](=O)[O-])cc1,-6%
COc1cc2cc[n+]3cc4c(OC)c(OC)ccc4cc3c2cc1OC,10%
Cc1ccc(Cl)cc1NC(=O)c1oc2ccc(S(=O)(=O)N(C)C3CCCCC3)cc2c1C,6%
CN(C)c1nc(Oc2ccc(=O)[nH]n2)nc(N2CCCCC2)n1,10%
COc1ccc(OC)c(S(=O)(=O)N2CCC(C(=O)NCc3cccnc3)CC2)c1,10%
COc1ccc(Nc2cc(C)c3ccc(O)cc3n2)cc1,-5%
Cc1ccc(C2SCC(=O)N2Cc2cn3ccsc3n2)o1 (stereo not drawn),-13%
Cc1ccc(S(=O)(=O)NCCN2CCOCC2)cc1C,-8%
CC1CCCCC1NC(=O)CSc1nnc(COc2ccc(Cl)cc2)o1 (stereo not drawn),14%
COC(=O)CCC/C=C1/SCC(NC(=O)c2ccccc2)C1=O (stereo not drawn),89µM*
C=CCn1c(SCC(=O)c2[nH]c(C)c(C(=O)OCC)c2C)nc2scc(-c3ccc(OC)cc3)c2c1=O,9%
COC(=O)N/N=C/c1cn(Cc2ccc(F)cc2)c2ccccc12,-7%
CCC(CC)COC(=O)C1=C(C)NC(=O)NC1c1cccc([N+](=O)[O-])c1 (stereo not drawn),-10%
COC(=O)C1=C(C)C(c2cccs2)NC(=O)N1C (stereo not drawn),1%
COc1ccc(NC(=O)N(C)C[C@H]2Oc3ccc(NC(=O)C4CC4)cc3C(=O)N([C@H](C)CO)C[C@@H]2C)cc1,7%
Cn1cc([N+](=O)[O-])c(C(=O)Nc2nccs2)n1,-10%
COC(=O)c1ccccc1NC(=O)c1ccc2c(c1)CC(C)O2 (stereo not drawn),-25%
Cc1c(CC(=O)O)c(=O)oc2c(C)c(OCc3c(F)cccc3Cl)ccc12,7%
CCCCOc1ccc(C(=O)OCC(=O)N2CCOCC2)cc1,-1%
COc1cc(CNCc2cccc3ccccc23)cc(OC)c1,-14%
O=C(O)CC1(c2ccccc2)C(=O)c2ccccc2C1=O,3%
O=[N+]([O-])c1ccccc1S(=O)(=O)Nc1ccc2c(c1)OCCO2,-8%
CCN(CC)CCCNC(=O)C1CCC(=O)N(c2ccc(OC)cc2)C1c1ccc(F)cc1 (stereo not drawn),-1%
CC(=O)c1c(C)[nH]c(C(=O)NC2CCCCC2)c1C,0%
FC(F)(F)c1cc(CN2CC[C@@]3(CCCNC3)C2)cc(C(F)(F)F)c1,?
CCc1ccc(Nc2nc3c(S(=O)(=O)c4ccc(C)cc4)nnn3c3ccsc23)cc1,-4%
COc1ccc(OC)c(S(=O)(=O)Nc2cc(C)on2)c1,-4%
O=C(/C=C/c1ccccc1Cl)OCC(=O)N1CCCC1,0%
COc1cccc(NC(=O)COC(=O)c2nc3nccc(C)n3n2)c1,-2%
CCCCN(CC)CCNC(=O)Cn1c(=O)c2cccn2c2cccnc21,-4%
Cn1c(SCC(=O)NC2CC2)nnc1-c1ccccc1Cl,-8%
CCn1c(CSc2nc(C)cc(C)n2)nnc1SCC(=O)Nc1cccc2ccccc12,-9%
Cc1ccccc1NC(=O)NCCN1C(=O)C2C3C=CC(C3)C2C1=O (stereo not drawn),-2%
Cc1ccc([N+](=O)[O-])cc1S(=O)(=O)N1CCC(C)CC1,2%
Cc1cc(C(=O)NCC(=O)OCC(=O)N(C2CCCCC2)C2CCCCC2)ccc1[N+](=O)[O-],-20%
COc1ccc(CNC(=O)c2cc3cccc4c3n2CC(C)S4)c(OC)c1 (stereo not drawn),14%
Cc1ccc(C)c(S(=O)(=O)N2CCN(CC(=O)Nc3ccc([N+](=O)[O-])cc3)CC2)c1,0%
CC(CC(=O)O)CC(=O)N1CCN(S(=O)(=O)c2cccs2)CC1 (stereo not drawn),-6%
COc1ccc(S(=O)(=O)NCCc2ccccn2)cc1,5%
C/C(=N\Nc1nncc2ccccc12)c1cccc(OC(F)F)c1,-3%
O=C(C1CCC(CNS(=O)(=O)c2ccccc2)CC1)N1CCOCC1 (stereo not drawn),13%
O=C(NCc1ccccn1)c1ccc(Cl)c(NC2=NC3CS(=O)(=O)CC3S2)c1 (stereo not drawn),-14%
Cc1cc(NC(=O)Cn2c(=O)c3c(ncn3CC(C)C)n(Cc3ccccc3)c2=O)no1,4%
Cc1cc(N2CCC(C(=O)N3CCN(c4cccc(C)c4C)CC3)CC2)n2ncnc2n1,-8%
Cc1ccn2cc(CNS(=O)(=O)c3ccc4c(c3)OCCO4)nc2c1,-6%
Cc1ccn2c(Nc3ccccc3C)c(-c3ccccn3)nc2c1,-7%&6%
Fc1ccc(NC(=S)NN=C2CCCCCC2)cc1,-4%
O=C(Oc1c(-c2ccco2)oc2ccccc2c1=O)c1cccnc1,-13%
CC(C)CC(NC(N)=O)C(=O)Nc1cccc([N+](=O)[O-])c1 (stereo not drawn),-8%
Cc1cc(NC(=O)C2C3C(=O)N(Cc4ccc(Cl)cc4)C(C(=O)NCc4ccccc4)C34C=CC2(C)O4)no1 (stereo not drawn),-2%
